TRPML1 ag: qHTS for Agonists of the Human Mucolipin Transient Receptor Potential 1 (TRPML1); Mucolipin-1 (Homo sapiens), Q9GZU1; 0.12% of 410,000 active; AID 624414, 2012; TRPML1-expressing cells, Ca2+ dye fluorescence, FDSS; host cell line not named in the record; reference of the full effect not given here; activation, % (concentration not given with the values); in the data active = activation above about 50%; inconclusive = about 30% to 50%; inactive = below about 30%; also: 0% is about no effect; the text of the record puts the active cut at 80%
Target sequence (Q9GZU1 whole entry, looked up): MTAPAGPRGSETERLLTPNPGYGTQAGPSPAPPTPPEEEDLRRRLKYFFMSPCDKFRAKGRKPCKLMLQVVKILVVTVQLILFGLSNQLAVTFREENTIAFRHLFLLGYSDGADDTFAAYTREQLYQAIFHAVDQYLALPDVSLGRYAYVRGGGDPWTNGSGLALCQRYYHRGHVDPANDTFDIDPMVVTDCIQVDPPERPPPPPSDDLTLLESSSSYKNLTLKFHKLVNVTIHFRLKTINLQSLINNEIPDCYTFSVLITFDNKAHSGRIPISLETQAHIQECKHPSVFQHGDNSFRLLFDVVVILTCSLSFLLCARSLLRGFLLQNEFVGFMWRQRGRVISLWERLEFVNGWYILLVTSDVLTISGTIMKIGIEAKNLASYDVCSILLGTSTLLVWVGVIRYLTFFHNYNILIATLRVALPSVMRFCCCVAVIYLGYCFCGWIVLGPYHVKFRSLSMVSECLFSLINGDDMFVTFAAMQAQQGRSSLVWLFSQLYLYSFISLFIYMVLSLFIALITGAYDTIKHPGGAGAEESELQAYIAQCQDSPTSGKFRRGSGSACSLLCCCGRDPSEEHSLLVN
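Tet-induced TRPML1-DL cells, 1,500 per well, cultured overnight, were loaded with a no-wash Ca2+ dye for 45–90 min. Calcium fluorescence was recorded on the FDSS for 110 s after compound addition, before the EC80 agonist (4 uM 54-4) was added.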
ClpP mod: qHTS Assay for Activators of ClpP; ATP-dependent Clp protease proteolytic subunit (Bacillus subtilis (strain 168)), P80244; AID 651965, 2013; 1.9% of 340,000 active; Potency, µM (top dose mostly 57.5 µM), inactives show top-dose activity change, negative = active; purified B. subtilis ClpP, FRET peptide cleavage, 20 min; active = well fitted falling curve with a large enough effect; inconclusive = small, poorly fitted or top-dose-only effect; inactive = no such curve, though single readings can be large or run the other way; also: potency is read from the fitted curve at half-maximal effect; the source files actives as falling curves though it sought activators and does not explain the sign; nearly all actives have a fitted effect of over 65% in size; many hits overshoot -100%
Target sequence (P80244 whole entry, looked up): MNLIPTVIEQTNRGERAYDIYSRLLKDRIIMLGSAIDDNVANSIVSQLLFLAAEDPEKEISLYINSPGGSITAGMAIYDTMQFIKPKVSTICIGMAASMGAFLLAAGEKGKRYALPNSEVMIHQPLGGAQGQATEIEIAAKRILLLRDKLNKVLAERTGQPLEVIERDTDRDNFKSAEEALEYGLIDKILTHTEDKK
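ClpP 10 microg/mL final, pH 8 Tris/KCl buffer with BSA, glycerol, Tween-20; compound pinned in; FRET-FV substrate; RT 20 min; Ex320/Em430; ΔFRET vs ADEP 5.8 microM, DMSO, no enzyme.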
gsp ag: qHTS for Agonist of gsp, the Etiologic Mutation Responsible for Fibrous Dysplasia/McCune-Albright Syndrome: qHTS. gsp mutant cells, cAMP HTRF, 30 min; control for the full effect not named in the record. Potency, µM (series often up to 76.9 µM), without a hit: at the top dose activation (cAMP increase), usual class: activators. 0.13% of 340,000 active. AID 624287, 2012; active = well fitted activation curve with a large enough effect; inconclusive = small, poorly fitted or top-dose-only effect, or another doubt; inactive = no such curve, though single readings can be large or run the other way; cell line not stated here;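 also: phosphodiesterase inhibitor Ro 20-1724 added with compounds to block cAMP breakdown; potency is read from the fitted curve at half-maximal effect; nearly all actives have a fitted effect of over 60% in size; about a fifth of the inactives were tested at one dose only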
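Cells in DMEM/10% FBS with G418 were pretreated with compounds in DMSO plus […] (300 uM stock) for 30 min at 37C. cAMP was measured by HTRF (cAMP-d2 plus anti-cAMP antibody-K) after 30 min at room temperature.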
TRPML1 blocker: qHTS for Inhibitors of the Human Mucolipin Transient Receptor Potential 1 (TRPML1); Mucolipin-1 (Homo sapiens), Q9GZU1; TRPML1-inducible cells, Ca2+ dye fluorescence, FDSS; hits give low values; inhibition of EC80 agonist-evoked calcium signal; activity change, negative = inhibition, % (concentration not given with the values); 0.02% of 390,000 active; in the data active means activity change below about -50%; inconclusive means about -30% to -50%; inactive means above about -30%;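 also: stimulus is agonist 54-4 at its EC80 concentration; % is scaled to controls: 0 for no effect and ±100 for the full control effect; compound concentration not given in the record; the text of the record puts the active cut at -80%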
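Calcium fluorescence in TRPML1-DL cells induced overnight with Tet: a 110 s read after compound pin addition, then a 110 s antagonist read after challenge with 54-4 at 4 uM final (EC80).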
Menin-MLL FL inh: qHTS Assay for Inhibitors Targeting the Menin-MLL Interaction in MLL Related Leukemias: Competition With Fluorescein Labeled MLL-derived Peptide. 290,000 tested, under 10 active. AID 1766, 2009. Fluorescence polarization, fluorescein-MLL peptide displacement from menin. FP activity change, % at 61.4 µM; inconclusive = falling polarisation curve, or a change in total fluorescence; inactive = total fluorescence flat and polarisation flat or rising; no compound was filed as active; the % refers to the polarisation; negative = inhibition;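 also: % of control where 0% means no effect; inhibitors lower the polarisation; unlabelled MLL peptide was the positive control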
gsp antagonist: qHTS for Antagonists of gsp, the Etiologic Mutation Responsible for Fibrous Dysplasia/McCune-Albright Syndrome: qHTS. gsp-mutant cells, cAMP HTRF, 30 min; control for the full effect not named in the record. Potency, µM (titrated, usually from 76.9 µM), without a hit: at the top dose activity change, negative = inhibition, usual class: inhibitors. 0.4% of 340,000 active. AID 624288, 2012; active = falling curve of any shape with a large fitted effect; inconclusive = falling curve, mostly with a smaller effect; inactive = flat or rising curve; cell line not stated here;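 also: intracellular cAMP measured with PDE inhibitor Ro 20-1724 present during compound exposure; potency is read from the fitted curve at half-maximal effect; % is scaled to controls: 0 for no effect and ±100 for the full control effect; nearly all actives have a fitted effect of over 65% in size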
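HTRF cAMP measurement after 30 min RT detection following 30 min, 37C compound treatment alongside […] (added as 300 uM solution) in G418-selected cells seeded at 2000/well and grown 16–24 h.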
Active calls of the source: *; ? = inconclusive; nt = not tested or not shown; & = joins results of further samples; [ ] = another dose, or the depositor's remark. Random draw from the library; overall some 2.1% were active at least once.

entry	molecule	TRPML1 ag	ClpP mod	gsp ag	TRPML1 blocker	Menin-MLL FL inh	gsp antagonist
1	COc1ccc2[nH]cc(C(=O)NCCc3ccccc3)c(=O)c2c1	0.6	nt	-1.6%	-25.3	-0.9	-14.3%
2	CCn1c(SCC(=O)Nc2cc(C)on2)nnc1-c1ccc(C)cc1	-0.8	nt	?	-1.4	0.2	-6.1%
3	CC(=O)c1ccc(NC(=O)CSc2nc(=O)n3cccc(C)c3n2)cc1	0.1	-0.8%	18.5%	20.3	nt	12.4%
4	COc1ccccc1NC(=O)CSc1ncn[nH]1	-0.7	-1.0%	?	29.9	2.7	-2.1%
5	Cc1nc2ccc([N+](=O)[O-])cc2nc1C	-0.4	0.2%	-3.2%	3.8	-0.3	4.7%
6	COc1ccc2sc(-c3ccccc3OC)c(-c3ccc(OC)nc3)c2c1	0.5	?	6.9%	9.3	nt	-8.1%
7	N#CC1=C(N)Oc2n[nH]c(-c3ccccc3)c2C12C(=O)Nc1ccccc12 (centres undefined)	0.3	-1.7%	-3.2%	26.4	1.8	-1.3%
8	CCC(C)n1nccc1NC(=O)C(C)Cl (centres undefined)	-0.2	nt	11.6%	16.2	-1.3	3.2%
9	Cc1ccc(NC(=O)CSc2nc3nccnc3c(=O)n2CCc2c[nH]c3ccccc23)c(C)c1	1.1	2.4%	nt	18.7	nt	nt
10	CN(C)c1cccc(C(=O)OCC(=O)NC2CCCC2)c1	-0.5	-0.5%	?	-0.1	-0.2	3.8%
11	CCCCN1C(=O)C(NC(C)=O)c2ccccc21 (centres undefined)	-0.3	-0.5%	-2.7%	12.2	-0.3	17.9%
12	COc1ccc(S(=O)(=O)Nc2c(F)cccc2F)cc1	1.3	nt	13.1%[15.4 µM]	14.6	-1.6	nt
13	CC(C)N(C)C1CCN(S(=O)(=O)c2ccc3[nH]c(=O)ccc3c2)CC1	0.9	?	nt	49.8	nt	nt
14	O=C(/C=C/c1ccc(F)cc1)Nc1cccc(S(=O)(=O)N2CCOCC2)c1	0.0	-0.7%	3.5%	16.9	nt	-21.2%
15	O=C(c1ccco1)N1CCN=C1SCc1ccccc1Cl	0.7	0.5%	-5.1%	12.6	3.2	5.4%
16	COc1ccc(-c2noc3c2-c2nc(-c4ccc(C)cc4)sc2CC3)cc1	-0.3	-1.2%	nt	63.6	nt	?
17	Nc1nc(N)c(N=Nc2ccc(S(N)(=O)=O)cc2)c(=O)[nH]1	-0.6	1.9%	25.1%	-2.2	-1.8	-19.5%
18	Cc1ccc(S(=O)(=O)N2CCC(C(=O)N3CCC(C(=O)NCc4cccnc4)CC3)CC2)cc1	-0.2	-0.8%	9.7%	-12.1	7.1	1.9%
19	C=CCc1c(C)nc(-c2ccccc2)nc1Nc1ccccc1O	1.6	nt	-10.7%	-2.0	?	-12.4%
20	O=C(NCc1ccco1)c1cccs1	0.0	0.6%	?	-4.1	9.7	3.4%
21	Cc1cc(NC(=O)COC(=O)C2CC(=O)N(c3ccccc3Cl)C2)no1 (centres undefined)	-0.1	nt	-6.2%	16.6	?	6.4%
22	COc1cccc(C(=O)Nc2cc(NC(=O)c3cccs3)ccc2C)c1OC	-0.1	-2.3%	-21.3%	-20.8	-1.6	6.1%
23	Oc1ccccc1-c1nc2ccccc2nc1-c1ccccc1	-0.4	nt	2.7%[15.4 µM]	-1.1	2.8	5.4%
24	CN(C)CCCN(C(=O)CCc1ccccc1)c1nc2c(F)cccc2s1	2.2	1.5%	-83.0%[inhibitor]	-1.6	1.4	11.8%
25	COc1cccc(N2CCN(C(=S)Nc3cccc(C)c3)CC2)c1	0.2	-1.1%	19.0%	-11.2	0.5	4.6%
26	O=c1nc2c(O)cccn2c2c1c(=O)[nH]c1ccccc12	20.6	-4.8%	?	-5.2	?	?
27	CN(C)S(=O)(=O)N1CCC(Oc2cccc(C(=O)NC3CCCCC3)c2)CC1	-1.0	-1.1%	8.3%	-5.4	nt	?
28	COc1ccc(C)cc1NC(=O)CN(Cc1nnc(-c2ccc(Cl)cc2)o1)C1CCCC1	8.7	-16.1%	-65.7%[inhibitor]	50.0	7.1	-7.8%
29	Nn1cc(-c2ccccc2)nc1SCC(=O)Nc1ccc(S(N)(=O)=O)cc1	0.3	-3.8%	?	-18.7	-1.2	8.8%
30	O=c1nc2ccccc2c(NS(=O)(=O)c2ccc(Cl)cc2)n1-c1ccccc1	3.7	?	19.8%	-10.6	0.2	13.4%
31	COc1ccccc1NC(=O)c1cc2ccccc2nc1C	-0.1	nt	-2.1%[15.4 µM]	-16.8	2.2	0.3%
32	N#C/C(=C(/O)CN1CCCC1)c1nc(-c2ccccc2)cs1	-0.7	nt	-6.5%[15.4 µM]	6.3	13.7	-2.1%
33	Cc1c(C(=O)N(C)Cc2ccccc2)sc2nc(-c3ccc(F)cc3)cn12	5.1	2.6%	nt	81.3	nt	nt
34	CC(C)(C)c1ccc(COn2c(=O)c(-c3ccco3)[n+]([O-])c3ccccc32)cc1	-0.2	-0.4%	-19.5%	-0.4	?	1.8%
35	CC(=O)N1c2ccc(S(=O)(=O)CCC(=O)O)cc2CC1C (centres undefined)	1.1	-1.4%	-0.8%	0.5	0.3	4.3%
36	S=c1[nH]nc(-c2ccco2)n1/N=C/c1ccc(Cl)cc1	2.6	-1.0%	4.9%	-11.3	4.0	-14.2%
37	O=c1[nH]c(SCc2ccc(F)cc2)nc2c1CCCC2	3.7	1.6%	nt	?	nt	nt
38	CCOc1ccccc1N(CC(=O)N/N=C/c1cc(Br)ccc1OC)S(C)(=O)=O	2.2	-0.3%	-0.5%	-17.4	3.0	-23.2%
39	CC(C)n1c(SCC(=O)N2CCCCC2)nc2c1c(=O)n(C)c(=O)n2C	-0.6	nt	-0.1%	8.0	3.3	1.3%
40	CCN/C=C(\C#N)S(=O)(=O)c1ccc(Br)cc1	-0.8	1.1%	8.2%[15.4 µM]	3.9	1.2	1.2%
41	Cc1ccc(NC(=O)c2c(C)noc2C)cc1	0.4	-1.2%	-28.2%	-1.9	0.3	0.1%
42	O=C1CC/C=C\C[C@@H](CC(=O)N(CCO)Cc2ccccc2)C(=O)N2CCC[C@H]2CO1	-0.6	-0.5%	nt	-4.9	nt	11.0%
43	Cc1ccc2[nH]c(CSc3nnc(NC(=O)COc4ccccc4C)s3)cc(=O)c2c1	1.3	?	nt	-3.5	nt	nt
44	Nc1ccc(S(=O)(=O)Nc2ccc(C(=O)c3ccccc3)cc2)cc1	0.2	0.9%	1.7%	-2.9	-1.6	-18.2%
45	NC(=O)CC(NC(=O)Cc1ccc(Br)cc1)c1ccc(NCc2ccc(F)cc2)c([N+](=O)[O-])c1 (centres undefined)	-0.3	0.4%	nt	1.0	-2.0	9.2%
46	Cc1cc(NC(=O)c2cc(-c3ccc(O)cc3)on2)no1	1.0	1.1%	-37.4%	-8.7	5.1	3.1%
47	Oc1ccccc1-c1nc(N2CCCC2)c2ccccc2n1	0.0	0.0%	?	6.9	-2.2	-10.9%
48	CCOC(=O)c1ccc(NC(=O)c2cc(S(=O)(=O)N3CCOCC3)cn2C)cc1	0.9	0.7%	-12.3%	10.3	-6.0	-11.4%
49	CCc1ccc(OCc2ccc(C(=O)OC)o2)cc1	4.5	-3.1%	10.2%	-23.3	-1.2	-0.2%
50	CCOC(=O)N1CCC(N(CCCOC)C(=O)Nc2ccc(CC)cc2)CC1	0.4	-0.1%	-17.3%	-5.6	1.4	-8.5%

(next part)
entry	molecule	TRPML1 ag	ClpP mod	gsp ag	TRPML1 blocker	Menin-MLL FL inh	gsp antagonist
51	CCCC(=O)c1ccc(N2CCCCC2)c(F)c1	2.5	-2.8%	-17.9%	2.3	0.4	5.8%
52	COc1cccc(-n2c(Cc3cc(=O)[nH]c(=O)[nH]3)nnc2SCC(=O)NC2CCCCC2)c1	3.4	1.3%	-27.7%	1.6	4.0	5.0%
53	O=C(Nc1cc(S(=O)(=O)Nc2ccccc2Cl)ccc1O)c1ccc(F)cc1F	1.8	nt	-44.2%[inhibitor]	3.8	nt	0.5%
54	Cn1cc(S(=O)(=O)Oc2ccccc2)c(=O)n(C)c1=O	0.2	nt	6.5%[15.4 µM]	16.9	-0.8	3.8%
55	CCn1cc(CN2CCC(C(=O)Nc3cccc(-c4cccc(OC)c4)c3)CC2)c(C)n1	-0.7	-0.5%	?	-14.6	nt	10.6%
56	Cc1ccc(C(=O)N/C(=C\c2cccnc2)C(=O)N2CCCC2)cc1	-0.4	nt	-25.8%	-6.0	-1.1	0.6%
57	COc1ccc(N(CC(=O)N2CCN(c3ccccc3F)CC2)S(=O)(=O)c2c(C)n[nH]c2C)cc1	-0.1&0.0	0.2%	?	-10.3&-23.3	2.6	-10.7%
58	Nc1c(C2=NCCO2)nnn1Cc1ccccc1	-0.3	-0.9%	-43.9%[inhibitor]	-14.8	0.0	9.5%
59	Fc1cccc(CNc2ncnc3cc(Cl)ccc23)c1F	1.4	-8.9%	?	-4.5	-1.6	-13.8%
60	CCCCCCCCNc1nc(Cl)nc(NCCN2CCOCC2)n1	1.4	-2.9%	-2.4%	9.0	-0.7	9.8%
61	OCC[C@H]1C[C@@H](O)[C@H](O)[C@@]2(OCc3ccccc32)O1	0.0	-3.3%	nt	-0.1	nt	-6.4%
62	CC(=O)c1cccc(NC(=S)NNC(=O)c2ccc(C)c([N+](=O)[O-])c2)c1	2.2	-3.5%	-33.5%	-13.9	0.4	-13.0%
63	O=C(NCC12CC3CC(CC(C3)C1)C2)c1cc2nc(-c3ccccc3)cc(C(F)(F)F)n2n1	1.6	-4.9%	nt	16.7	nt	nt
64	COc1ccccc1Nc1c2c(nc3ccc(N)cc13)CCCC2	-0.7	-3.4%	-13.7%	-6.6	-1.6	11.6%
65	COC(=O)c1sccc1NC(=O)c1ccoc1C	1.0	-9.1%	?	3.9	-0.3	-3.9%
66	CSc1oc(-c2ccc(F)cc2)nc1S(=O)(=O)c1ccccc1	0.9	-15.3%	-11.5%	2.8	3.7	11.7%
67	Cc1c(NC(=O)c2ccc(C(C)(C)C)cc2)cccc1[N+](=O)[O-]	-0.7	-1.1%	-13.9%[15.4 µM]	-9.1	-0.3	-10.2%
68	Cc1ccc(C)c(NC(=S)/C(=C(\[O-])c2ccc(Cl)s2)[n+]2ccccc2)c1	-0.5	1.5%	-19.3%	-11.6	-0.2	2.0%
69	COc1ccc(NC(=O)Nc2cccc(OCc3cc(=O)n4cccc(C)c4n3)c2)c(OC)c1	0.9	-4.4%	nt	-7.0	nt	nt

Screening results (PubChem)
